# PrP 5UTR inh – suppresses PrP 5' UTR mRNA reporter expression; cell-based PrP 5' UTR mRNA reporter, plate reader; AID 488862; 340,000 compounds, 0.35% hits; inhibition, % (no concentration beside the values);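 active = every replicate at 50% or more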;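 note: 0 = median of the neutral control wells; tested in H4 reporter cells; numbers are from one replicate; inactives centre near -14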
# Bead autofluor – compound fluorescence in toxin protease inhibitor counterscreen; AID 624483; 360,000 compounds, 3.1% hits; compound autofluorescence counterscreen, microsphere flow cytometry; active compounds read high; fluorescence intensity (concentration not given with the values);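 active = at least 3 SD above the mean of all compounds, about 16000 in these data; inconclusive = too few beads counted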;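 note: 100 nL of 1 mM stock went into each well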
# BJeLR viability – BJeLR cell viability loss; BJeLR (HRASV12) viability, CellTiter-Glo ATP luminescence, 48 h; reference of the scale not given here; inhibition, % (no concentration beside the values); 300,000 compounds, 0.17% hits;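 active = replicate mean above 50%; inconclusive = above 50% but judged a plate artefact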;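 note: 50 nL library stock added to about 25 µL; numbers are from one replicate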
# Mtb hypoxia inh – reduces hypoxia-regulated biosensor signal in M. tuberculosis; 300,000 compounds, 0.1% hits; M. tuberculosis hypoxia-regulated fluorescent reporter, fluorescence; fluorescence inhibition, % (test concentration not listed);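 active = 35 to 45% if threefold the growth effect, above 45% if 1.5-fold the growth effect; inactive = the rest, general growth blockers included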;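 note: wells of about 50 µL received 100 nL stock; 0% = vehicle wells and 100% = reference inhibitor wells; whole bacteria with a GFP reporter of the hypoxia response; strong numbers were not always called active; many hits fall short of the cut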
# Sa ugtP lethal – compounds lethal to S. aureus RN4220 ugtP deletion mutant; OD600 growth, 16 h; some inactives read as strong as hits; growth inhibition, % (no concentration beside the values); 330,000 compounds, 0.54% hits; AID 1259309;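 active = z-score under -3 and OD600 up to 0.15 on both plates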;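 note: plate controls were untreated wells for no effect and antibiotic for full effect; wells of about 80 µL received 100 nL stock; the first replicate is given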
# Sa RN4220 lethal – S. aureus RN4220 growth inhibition. 330,000 compounds, 0.33% hits. OD600, 16 h. inhibition, % (test concentration not listed);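 active = z-score of -3 or lower and OD600 up to 0.18 on both plates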;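 note: plate controls were untreated cells for no effect and reference antibiotic for full effect; stock transfer was 100 nL into about 80 µL; one replicate is shown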
# Mtb hypoxia inh growth – recorded beside Mtb hypoxia inh, whose call it bears; growth inhibition, %; measured here: M. tuberculosis growth (absorbance);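 0% = vehicle and 100% = reference antibiotic; read after six days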
# Active calls of the source: *; ? = inconclusive; . = no result given.
Structure,PrP 5UTR inh,Bead autofluor,BJeLR viability,Mtb hypoxia inh,Mtb hypoxia inh growth,Sa ugtP lethal,Sa RN4220 lethal
CCOC(=O)c1c(NC(=O)Cn2c(=O)oc3ccccc32)oc(C)c1C(C)=O,-14,3584,1,.,.,7,7.2
O=S(=O)(c1ccc(F)c2ccccc12)N1CCCCC1,-16,4177,0,.,.,5,5.8
COc1ccccc1C(=O)OC(C)CN1CCN(C)CC1 (centres undefined),-6,4039,4,-9,10,0,2.1
Cc1ccc(C)c(S(=O)(=O)NC(C)C(=O)NCc2ccccn2)c1 (centres undefined),-14,6614,3,.,.,.,.
CCc1ccc2c(c1)C1(NN=C(c3cccc4ccccc34)S1)C(=O)N2 (centres undefined),18,2739,15,.,.,.,.
Nc1ccc(CSc2ccccc2)cc1,-40,3640,.,-5,9,-5,3.1
O=C(CNC(=O)c1ccc(Cl)cc1Cl)OCC(=O)c1ccc2c(c1)OCCO2,0,3123,4,3,3,8,4.9
Cc1nn(CC(=O)Nc2ccc(S(=O)(=O)N(C)C)cc2)c(C)c1[N+](=O)[O-],-8,2405,4,12,16,2,0.9
Cc1ccc2c(c1)N(CC(=O)NCCc1ccc(Cl)cc1)C(=O)c1cccnc1O2,-20,5068,-12,.,.,7,-1.7
CCCCCC(=O)Nc1cc(S(=O)(=O)N2CCCCC2)ccc1N1CCCCC1,-22,?,.,-8,-1,1,2.8
O=C(COC(=O)CC1CC2CCC1C2)Nc1cccc(S(=O)(=O)NC2=NCCCCC2)c1 (centres undefined),-23,4451,3,10,10,5,3.1
Cc1sc2c(c1C)CN(C(C)(C)C)CN2C(=O)c1ccccc1,-50,3509,11,5,12,6,2.2
CC(C)CNc1ncnc2c1cnn2Cc1ccccc1Cl,-11,4017,3,11,10,8,-12
COc1cc(C=O)cc(Br)c1OCC(N)=O,-3,2107,-4,0,6,3,10
O=C(NN=C1CCCCCCCCCCC1)c1ccccc1F,-12,2529,1,8,10,-10,6.3
COCc1[nH]nc2c1C(c1ccccc1F)C(C#N)=C(N)O2 (centres undefined),-1,6922,-21,4,3,13,6.2
COc1ccc(/C=N/NC(=O)c2cnccn2)c(OC)c1OC,-13,3391,-16,.,.,.,.
CCCCn1cnc2c(SCc3ccccn3)nc(N)nc21,-11,4117,.,20,10,6,1.4
Cc1ncc(CO)c(/C=N/NC(=O)c2cc3c(s2)CCCC3)c1O,13,4508,8,.,.,.,.
COc1ccccc1C(=O)NC(CCSC)C(=O)OCC(=O)NC(=O)NCc1ccco1 (centres undefined),-9,4580,0,.,.,8,0.5
O=C(CN(Cc1cccs1)S(=O)(=O)c1ccc(S(=O)(=O)N2CCCCC2)cc1)Nc1ccccc1,-11,2154,15,5,7,-3,4.8
CCOc1ccc(OCCC(=O)OCC(=O)Nc2ccc(Cl)cn2)cc1,-10,5752,-1,3,2,6,2.3
CN(C)S(=O)(=O)c1cccc(COc2cccnc2[N+](=O)[O-])c1,-18,5311,-6,10,7,7,4.6
Cc1c(C)c2ccc(OCC(=O)N(C)C3CCS(=O)(=O)C3)c(C)c2oc1=O (centres undefined),-14,5816,0,-2,5,-3,-0.9
Cc1ccsc1C1C(C#N)=C(N)OC2=C1C(=O)CC(C)C2 (centres undefined),-15,3299,-1,18,16,0,5.3
O=C(CCC1CCCN(C(=O)c2ccncc2)C1)NCc1ccc(F)c(F)c1 (centres undefined),-18,3984,4,-5,11,1,7.0
CC(=NNC(=S)Nc1ccccc1)c1ccc2c(c1)OCO2,.,.,.,4,-7,3,-1.6
CC(=O)N/C(=C\c1ccccc1)C(=O)OCc1cccc(S(=O)(=O)N(C)C)c1,-26,3649,2,0,8,11,6.6
CCc1ccc(C2CC(c3ccc(Cl)cc3)n3nc(N)nc3N2)cc1 (centres undefined),-34,5705,-2,.,.,-2,1.5
N[C@@H](Cc1ccccc1)c1nnc2sc(SCc3ccccc3)nn12,-8,9841,1,10,7,3,0.9
O=C(O)c1ccc(-c2ccc(OS(=O)(=O)c3ccccc3F)cc2)cc1,-33,5387,-15,10,8,0,6.9
Nc1nc2c(c(=O)[nH]1)C(c1ccccc1)C1=C(N2)c2ccccc2C1=O (centres undefined),-38,4504,-1,1,12,7,1.4
CN1CCc2c(sc3c2c(NCc2ccco2)nc2nnnn23)C1,-29,4757,1,11,2,4,-2.9
CCOC(=O)c1cnc(-c2ccccc2)nc1N,.,11773,7,7,7,3,14
O=C(O)CC(NC(=O)c1ccncc1)c1ccccc1 (centres undefined),-19,4732,5,-2,-3,11,5.4
CC1C(=O)N2CCCc3cc(NC(=O)COc4ccc(Cl)cc4)cc1c32 (centres undefined),-3,.,3,3,11,5,5.8

# Looked up above:
# `O=C(COC(=O)CC1CC2CCC1C2)Nc1cccc(S(=O)(=O)NC2=NCCCCC2)c1` (centres undefined) in Bead autofluor is listed with 4451
# `Nc1nc2c(c(=O)[nH]1)C(c1ccccc1)C1=C(N2)c2ccccc2C1=O` (centres undefined) in Sa ugtP lethal is listed with 7

# Continued.
Structure,PrP 5UTR inh,Bead autofluor,BJeLR viability,Mtb hypoxia inh,Mtb hypoxia inh growth,Sa ugtP lethal,Sa RN4220 lethal
CC(C)[C@H](NS(=O)(=O)c1ccccc1)C(=O)OCC(=O)Nc1ccccc1Sc1ccccc1,6,1952,-2,-2,7,-17,3.8
Cc1nc(N)c(Cc2ccccc2F)c(N)n1,-23,3348,-4,8,-4,0,19
Cc1cc(C)nc(NS(=O)(=O)c2ccc(N3C(=O)C4CC=C(Cl)CC4C3=O)cc2)n1 (centres undefined),-38,18775*,.,1,12,-10,7.7
O=C(C=Cc1ccccc1Cl)Nc1ccncc1,.,.,.,4,2,-23,-2.5
COc1cccc(NC(=O)NC2CCCCC2C)c1 (centres undefined),-12,2046,-9,-4,10,-1,2.4
CCOC(=O)CC1=C(C(=O)OCC)C(c2ccncc2)C(C#N)=C(N)O1 (centres undefined),-12,2553,.,-1,7,-9,-7.6
CN(C)c1ccc(/C=N/NC(=O)CNC(=O)c2ccco2)cc1,-29,3868,-1,.,.,.,.
Cc1c(C=NNC(=O)c2cccc(F)c2)cnn1C,.,.,.,-4,2,0,5.5
CC(C)(C)C(=O)Nc1ccccc1C(=O)Nc1ccncc1,-9,3959,-7,.,.,4,2.9
CC(C)CC1CCCCC1OC(=O)CN1CCCCC1 (centres undefined),-12,4473,4,1,-1,2,7.2
O=C(Nc1cc(Cl)cc(Cl)c1)C1CC(=O)N(C2CCCC2)C1 (centres undefined),-21,?,4,7,4,-12,7.9
Cc1ccc(NC(=O)Nc2nnc(Cc3ccc(F)cc3)s2)cc1,-28,3260,5,4,-4,0,0.1
Cc1ccc2c(c1)c1c3n2CC(=C2C(=O)OC(C)(C)OC2=O)NC3CCC1 (centres undefined),-17,7111,-4,10,8,-1,1.3
O=C(COC(=O)Cc1cccs1)Nc1ccccc1F,-18,9163,-2,5,10,4,3.4
Cn1c(=O)[nH]c(NC2CCCCC2)c(N=O)c1=O,7,2011,-6,19,14,8,6.1
CN(C)c1cccc(O)c1,0,5348,.,9,4,-1,6.0
CCOC(=O)c1[nH]c2ccc(Cl)cc2c1-c1ccccc1,-19,7239,1,10,6,-16,-4.9
COc1ccc(S(=O)(=O)N(C)c2ccc(OCC(=O)Nc3cc(C)on3)cc2)cc1,-27,3158,-4,5,6,-5,6.2
Cc1ccccc1CN(C)CC(=O)NC(C)CCc1ccccc1 (centres undefined),2,3822,6,0,0,-2,7.3
C=CCOc1c(CNc2nccs2)cccc1OCC,-7,11670,-7,0,14,-9,1.0
COCCCNC(=S)NCCCNc1nc2cc(C)cc(C)c2cc1C#N,-22,4966,1,3,11,2,2.6
O=C(NN1CCOCC1)c1cn(-c2ccccc2)nc1-c1cccs1,-1,4234,5,2,2,-13,1.8
CCC(c1nnnn1C1CCCC1)N1CCN(c2cccc(OC)c2)CC1 (centres undefined),-30,4792,0,-2,6,-3,4.8
CCC1CCC(C)N(N=O)C1 (centres undefined),-14,3660,.,-15,1,1,2.5
Cc1ccc(S(=O)(=O)NN=Cc2cn(-c3ccccc3)nc2-c2ccccc2)cc1,.,.,.,5,2,-28,-11
CCN1CCN(C(=O)c2ccc3c(c2)N(Cc2ccccc2)C(=O)c2ccccc2S3(=O)=O)CC1,-10,5410,-5,-4,12,4,17
CCC[N+]12CCC(CC1)C(=C(c1ccccc1)c1ccccc1)C2,2,2446,0,.,.,9,0.7
Cc1c(CC(Cl)(Cl)Cl)c2c(n1O)CC(C)(C)CC2=O,-8,2252,3,3,9,-5,2.3
N#Cc1ccccc1CSCCNC(=O)Cc1c(F)cccc1Cl,-8,4225,-2,.,.,.,.
O=c1[nH]c(/C=C\c2cccc(C(F)(F)F)c2)nc(O)c1[N+](=O)[O-],-22,3124,-6,15,10,7,0.9
CCN1C(=O)C(=O)N(CC(=O)c2[nH]c(C)c(C(C)=O)c2C)C1=O,-27,?,0,9,6,10,3.7
COc1ccc(S(=O)(=O)NCCc2c(C)nn(C)c2Oc2ccccc2)cc1,-7,4064,-3,5,15,-7,7.6
COC(=O)c1ccc(N2C(=O)c3ccc(OC)c(OC)c3C2=O)cc1,0,.,4,3,6,-2,-10
Cn1nc2c(c1C(=O)N1CCCC(C(=O)c3cc(F)ccc3F)C1)CCCC2 (centres undefined),-8,2038,3,5,-1,13,2.4
CCCn1c(COc2ccccc2OC)nc2ccccc21,-30,3748,-1,3,16,5,4.6
CCOc1ccc(N2CSC3=C(C#N)C(c4ccco4)CC(=O)N3C2)cc1 (centres undefined),.,7756,1,6,2,6,-0.1
NC(=O)c1nsc(C(=O)N(CC(=O)NCc2ccco2)c2ccccc2F)c1N,-22,4404,0,-8,-14,-3,0.2
COc1ccc(-n2c(SCC(=O)OC(C)C)nnc2-c2ccccn2)cc1,-15,23489*,-1,8,8,4,6.3
O=C(CN1CCCCCC1)OCCN=C1NS(=O)(=O)c2ccccc21,-24,3194,22,11,11,3,2.7
CCOc1ccc(CCNC(=O)COC(=O)C2CC2)cc1OCC,-6,4945,-1,-1,-2,-6,-1.4
O=S(=O)(NCc1cn2ccsc2n1)c1cccs1,-26,?,-11,3,3,-1,2.1
Cc1nc(/C=C/c2ccccc2)cc(/C=C/c2ccccc2)n1,-6,15798,-3,13,10,6,8.5
COc1ccc(-c2cc(C(=O)OCC(=O)Nc3cc(C)on3)c3ccccc3n2)cc1OC,1,.,-10,0,8,-7,-2.3
COc1ccc2c(c1)CCc1sc(NC(=O)c3ccco3)nc1-2,-25,4642,14,6,8,27,1.7
CCn1c(C(=O)O)c(CC(=O)NC2CCCCCC2)c2ccccc21,-37,2565,2,-2,-1,-5,2.6
N#Cc1ccccc1NC(=O)c1ccc2c(c1)OCCO2,-48,3008,7,10,-2,0,2.4
Nc1nonc1C(=O)OCC(=O)N1CCOCC1,-13,20876*,1,3,11,8,6.2
Cc1cc(=O)oc2cc(NS(=O)(=O)c3ccc(F)cc3)ccc12,-12,3097,-1,-6,18,0,2.2

# Quoted at random: 2 records from the list, in no set order.
Structure,PrP 5UTR inh,Bead autofluor,BJeLR viability,Mtb hypoxia inh,Mtb hypoxia inh growth,Sa ugtP lethal,Sa RN4220 lethal
CCc1ccc2c(c1)C1(NN=C(c3cccc4ccccc34)S1)C(=O)N2 (centres undefined),18,2739,15,.,.,.,.
O=C(O)CC(NC(=O)c1ccncc1)c1ccccc1 (centres undefined),-19,4732,5,-2,-3,11,5.4

# The listing continues.
Structure,PrP 5UTR inh,Bead autofluor,BJeLR viability,Mtb hypoxia inh,Mtb hypoxia inh growth,Sa ugtP lethal,Sa RN4220 lethal
CCCn1c(=N)n(CC(=O)OCC)c2ccccc21,-10,2457,10,.,.,6,2.2
CC[n+]1c(/C=C/N(C)c2ccccc2)oc2ccc(Cl)cc21,-3,9688,7,.,.,.,.
COc1ccc(CNC(=O)Nc2ccc3c(c2)N(C)C(=O)CS3)cc1,-12,2533,6,2,11,16,-5.7
COC(=O)c1sccc1NC(=O)C1CC=CCC1C(=O)O (centres undefined),-13,10599,0,6,-2,0,8.5
Cc1ccsc1C=NNc1ccc(C(=O)O)cc1,.,.,.,19,4,7,4.5

# Assay outcomes: PubChem BioAssay, several laboratories
